# Prx2 Sm inh – Schistosoma Mansoni Peroxiredoxins (Prx2); hit rate 0.07% among 65,000; S. mansoni Prx2 activity coupled to TGR/GSH (TGR is thioredoxin glutathione reductase), NADPH fluorescence loss, qHTS; some inactives read as strong as hits; Potency, µM; Schistosoma mansoni peroxiredoxin 2 (Prx2); active means full or partial inhibition curve with a strong effect at the top dose; inconclusive means weaker partial or single-point curve; inactive means no accepted curve; also: series up to 57 µM; many of its hits are not listed in these tables
#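 Enzyme mix: 100 uM NADPH, 25 nM TGR, 700 uM GSH, 50 nM Prx2 in 100 mM phosphate pH 7.4, 10 mM EDTA, 0.01% Tween-20. 15 min RT with compound; NADPH/GSH added, H2O2 starts reaction; NADPH fluorescence read 8 min.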
# Anthrax LT inh – qHTS Assay for Anthrax Lethal Toxin Internalization. hit rate 0.67% among 70,000. Potency, µM (series often up to 40 µM), for the others: at the top dose activity change, negative = inhibition, hits mostly inhibitors. Cells, anthrax lethal toxin internalization, FRET ratio (460/530); active = well fitted falling ratio curve with the 530 nm signal flat; inconclusive = other ratio curves, or a change in one channel alone; inactive = flat curves in the ratio and both channels; the % refers to the ratio; also: % is scaled to controls: 0 for no effect and ±100 for the full control effect; nearly all actives have a fitted effect of over 50% in size; tested in ME-180 cells; beta-lactamase reporter
# * marks the source's active call; other numbers are inactive results; ? = inconclusive; . = no result given; [ ] = remark or other dose. Potency is read from the fitted curve at half-maximal effect. These rows are one share of the data; the hit share may differ from the screen's.
SMILES,Prx2 Sm inh,Anthrax LT inh
CCCn1c(SCC(=O)N2CCc3ccccc32)nnc1-c1ccncc1,>57,-4%
COCC(C)OC(=O)C(C#N)c1nc2ccccc2nc1N1CCN(Cc2ccccc2)CC1 (centres undefined),>57,?
COc1ccc(-c2nnc(CSc3nc4ccccc4c(=O)n3CC3CCCO3)o2)cc1OC (centres undefined),>57,1%
O=C1NCC2=C1C(c1ccc(Br)cc1)Nc1ccccc1N2 (centres undefined),.,-18%
COc1ccc(-c2nnc3ccc(SCC(=O)NCc4ccco4)nn23)cc1,>57,-5%
O=C(c1c(F)cccc1F)N1CCN(c2cccc(C(F)(F)F)c2)CC1,.,-10%
COc1ccc(CC(=O)Nc2c3c(nn2-c2cccc(C)c2C)CS(=O)C3)cc1OC (centres undefined),>57,0%
CCOC(=O)Cc1c(C)c2ccc(N(CC)CC)cc2oc1=O,>57,?
COC(=O)[C@@]1(Cc2ccc(OC)cc2)[C@H]2c3cc(C(=O)N4CCCC4)n(Cc4cc(F)c(F)c(F)c4)c3C[C@H]2CN1C(=O)c1ccccc1,>57,-15%
Cc1c(NC(=O)CSc2nnc(-c3cccc(Cl)c3)o2)c(=O)n(-c2ccccc2)n1C,>57,25%
Cc1cc(=O)n2[nH]c(-c3ccc(Cl)cc3)cc2n1,>57,9%
CN(C)S(=O)(=O)c1ccc2c(c1)/C(=C/c1cc3c([nH]1)CCCC3)C(=O)N2,>57,?
CC(NC(=O)c1cccnc1)C(c1cccs1)N1CCOCC1 (centres undefined),>57,-4%
COC(=O)c1ccc(Oc2nc(NC(C)C)nc(SC)n2)cc1,>57,-9%
O=C(c1cc(C(F)(F)F)cc(C(F)(F)F)c1)N1CCC2(CC1)CN(Cc1ccncc1)C2,>57,?
O=C(CSc1nnc2scc(-c3ccc(Cl)cc3)n12)NCc1ccc2c(c1)OCO2,>57,-11%
N#CCSc1nnc(COc2ccc3ccccc3c2)o1,>57,4%
C/C(=N\S(=O)(=O)c1ccc(C)cc1)N1CCN(S(=O)(=O)c2ccccc2)C1,>57,7%
CNC(=O)CN1C(=O)CSc2nc(C)cc(C)c21,>57,-4%
CC(=O)Nc1cccc(OCC(=O)NS(=O)(=O)c2ccc(Cl)cc2)c1,>57,-22%

# Six compounds drawn at random from those above:
SMILES,Prx2 Sm inh,Anthrax LT inh
COCC(C)OC(=O)C(C#N)c1nc2ccccc2nc1N1CCN(Cc2ccccc2)CC1 (centres undefined),>57,?
COC(=O)c1ccc(Oc2nc(NC(C)C)nc(SC)n2)cc1,>57,-9%
COc1ccc(CC(=O)Nc2c3c(nn2-c2cccc(C)c2C)CS(=O)C3)cc1OC (centres undefined),>57,0%
CC(=O)Nc1cccc(OCC(=O)NS(=O)(=O)c2ccc(Cl)cc2)c1,>57,-22%
COc1ccc(-c2nnc3ccc(SCC(=O)NCc4ccco4)nn23)cc1,>57,-5%
N#CCSc1nnc(COc2ccc3ccccc3c2)o1,>57,4%

# The listing picks up; the five compounds before the break are reprinted first.
SMILES,Prx2 Sm inh,Anthrax LT inh
O=C(CSc1nnc2scc(-c3ccc(Cl)cc3)n12)NCc1ccc2c(c1)OCO2,>57,-11%
N#CCSc1nnc(COc2ccc3ccccc3c2)o1,>57,4%
C/C(=N\S(=O)(=O)c1ccc(C)cc1)N1CCN(S(=O)(=O)c2ccccc2)C1,>57,7%
CNC(=O)CN1C(=O)CSc2nc(C)cc(C)c21,>57,-4%
CC(=O)Nc1cccc(OCC(=O)NS(=O)(=O)c2ccc(Cl)cc2)c1,>57,-22%
CCCCN1CCCC[C@H]1C(=O)Nc1c(C)cccc1C,>57,-5%[3.58 µM]
Cc1cccc(NC(=O)c2cnc3sccn3c2=O)c1C,>57,-7%
O=P1(Nc2ccc(F)cc2)COc2ccccc2OC1,>57,.
O=[N+]([O-])c1cc(Cl)c(Cl)cc1Cl,.,-14%
COc1ccc2ccccc2c1/C=N/O,>57,-7%
CN(C)C(=O)NC1CCCCCCCCCCC1,.,-5%
CCOc1c(C)cc(-c2ncccc2O)cc1C,>57,-20%
CCC(=O)c1ccccc1OCCCn1cncn1,>57,?
COc1ccccc1NC(=O)CSc1nc(O)cc(=O)n1-c1ccccc1OC,>57,-2%
CSc1nc(NC(C)(C)C)nc(Oc2ccc(=O)[nH]n2)n1,>57,-2%
Cc1ccccc1N1CCN(S(=O)(=O)C[C@@]23CC[C@H](C[C@H]2NC(=O)[C@@H](N)CCS(C)(=O)=O)C3(C)C)CC1,>57,-5%
CCOc1ccc(Cl)cc1CSc1n[nH]c(CC)n1,>57,-3%
CCN(CC)c1ccc(-n2c(C)c(C(C)=O)c(C(C)=O)c2C)cc1,>57,?
COC(=O)[C@@]1(Cc2ccccc2)[C@H]2c3cc(C(=O)N4CCCC4)n(Cc4ccc(C)o4)c3C[C@H]2CN1C(=O)c1ccccc1,>57,?
N=c1sccn1CC(=O)Nc1ccc(S(=O)(=O)N2CCOCC2)cc1,>57,-2%
Cc1nn(-c2ccccc2)c2c1C(c1ccc3c(c1)OCO3)SCC(=O)N2 (centres undefined),>57,-8%
CCCCCCOC(=O)Sc1nc2ccccc2o1,.,-14%
CCCNC(=O)CN(c1ccc(F)c(Cl)c1)S(C)(=O)=O,>57,-3%
N[C@@H](Cn1ccc(=O)n(Cc2ccccc2C(=O)O)c1=O)C(=O)O,>57,-17%
O=C(O)CCSc1nnc(-c2ccccc2)n1-c1ccccc1,.,0%
Cc1oc2nc(SCC(=O)NCc3cccnc3)nc(N)c2c1C,>57,6%
COC(=O)/C=C(\C)NC(=O)c1cccs1,>57,7%
COc1ccc(S(=O)(=O)Cc2ccc(C(=O)N3CCN(Cc4ccccc4)CC3)o2)cc1,>57,-11%
O=C(CCn1c(SCC(=O)NCc2ccco2)nc2ccccc2c1=O)NCCc1ccccc1,>57,-5%
O=C(NCc1nnc2n1CCCCC2)c1ccc(Cl)cc1Cl,>57,?
O=C(CCC(=O)N1CCN(S(=O)(=O)c2ccccc2)CC1)NC1CCCc2ccccc21 (centres undefined),>57,-6%
Cc1c2cn[nH]c(=O)c2c(C)n1Cc1ccc(F)cc1,>57,-13%
Cc1ccc2nsnc2c1-n1c(C)nc2ccccc2c1=O,>57,-5%
C/C(C[n+]1ccccc1)=N\N=C(N)N,>57,-5%[8 µM]
Cc1c(C(=O)OC2CCC(C)CC2)[nH]c2c1C(=O)CCC2 (centres undefined),>57,?
CC(=O)Nc1c(C(=O)NCc2ccccc2)nnn1Cc1ccccc1,>57,3%
O=C(CN1CCOCC1)Nc1scc(-c2ccccc2)c1C(=O)N1CCOCC1,>57,-13%
CC1(C)OC(=O)C(=CNc2ccccc2F)C(=O)O1,>57,-9%
Cc1ccc(C[N+](C)(C)C)o1,>26,?
CCOc1ccccc1NS(=O)(=O)c1ccc(Br)s1,>57,-20%
CCOC(=O)c1c(C)[nH]c(C(=O)OCC(=O)Nc2cc(C)ccc2OC)c1C,>57,-8%
Cc1nc(NCc2ccco2)[nH]c(=O)c1CCC(C)C,>57,5%
CCCN(C/C=C\I)[C@@H]1CCc2cccc(O)c2C1,>57,-10%
O=C(Cn1cc2c(n1)CCCC2)NCCCN1CCN(Cc2ccccc2)CC1,>57,?
COc1ccc2[nH]cc(CCNc3cc(-c4ccccc4OC)ncn3)c2c1,>57,?
CCOC(=O)CCc1n[nH]c(=O)[nH]c1=O,>57,-1%
CC1(C)C(c2ccccc2)=[N+]([O-])CN1O,.,7%
O=C1CNC(=O)/C1=C\N1CCN(C(c2ccccc2)c2ccccc2)CC1,.,-3%
C#CCNc1cc(C)nc2ncnn12,>57,-7%
CC(C)(C)NC(=O)NC(=O)COC(=O)Cn1c(C(F)(F)F)nc2ccccc21,>57,0%
c1ccc(CSc2nnc(-c3cccs3)n2Cc2ccco2)cc1,>57,0%
c1ccc(CNc2ccc3c(c2)ncn3C2CCCCC2)nc1,>57,-3%
CCCn1c(SCC(=O)Nc2nonc2C)nnc1-c1ccoc1C,>57,-26%
CCCCOc1ccc(C(=O)NCc2ccco2)cc1,>57,-3%
Cc1ccc(C)c(N2CCN(C(=O)C3CCCN(S(=O)(=O)c4c(C)[nH]c(=O)[nH]c4=O)C3)CC2)c1 (centres undefined),>57,-9%
N#CC1=C(N)N=C(SCc2ccccc2)C(C(N)=O)C12CCCCC2 (centres undefined),.,?
C=CCn1c(O)c(C(CC)=Nc2ccccc2NC(C)=O)c(=O)[nH]c1=O,>57,12%
CCOC(=O)C(C)c1n[nH]c(=O)c2ccccc12 (centres undefined),>57,-14%
COCCNC(=O)c1c[nH]c2cc(OC)c(OC)cc2c1=O,>57,-5%
O=C1NC(c2cccs2)C(C(=O)c2ccccc2)C(O)(C(F)(F)F)N1 (centres undefined),.,-7%
CS(=O)(=O)N(CCc1ccccc1)CC(=O)NCc1cccnc1,>57,-14%
CCOC(=O)c1cc(OC(=O)c2cccs2)n(-c2ccccc2)n1,>57,-3%
CCOC(=O)c1ccccc1NC(=O)CC1Nc2ccccc2NC1=O (centres undefined),.,?
CCc1nccn1S(=O)(=O)c1ccc(C)c(C)c1,>57,-16%
Cn1c(C(=O)O)c(CC(=O)Nc2ccccc2F)c2ccccc21,>57,23%

# For reference, some entries already given:
SMILES,Prx2 Sm inh,Anthrax LT inh
CCc1nccn1S(=O)(=O)c1ccc(C)c(C)c1,>57,-16%
Cn1c(C(=O)O)c(CC(=O)Nc2ccccc2F)c2ccccc21,>57,23%

# (listing goes on)
SMILES,Prx2 Sm inh,Anthrax LT inh
O=C(c1ccco1)N1CCN(C(=O)c2ccccc2Oc2ccccc2)CC1,>57,.
Cc1ncsc1CCOC(=O)c1cccnc1,>57,6%
CCN1C(=O)C2C(c3cccc(F)c3)NC(CC)(C(=O)OC)C2C1=O (centres undefined),>57,-3%
CCN(CC)C(=O)Oc1ccc2c(=O)c(-c3ccccc3)coc2c1,>57,-21%
CCC1(CC)C(=O)N=C2c3ccccc3C(=O)N21,>57,-2%
COc1cc(C(=O)NCc2nnc(SCC(=O)Nc3cc(C)cc(C)c3)o2)cc(OC)c1OC,>57,?
CCN(CC)C(=O)CSc1nc2ccc(NC(=O)CSc3nccn3C)cc2s1,>57,-18%
CN(C)CCCN=c1c2ccccc2n(C)c2[nH]c(=O)n(C)c(=O)c12,>57,?
Cc1ccc(N2C(=O)C3C4C=CC(C4)C3C2=O)cc1C (centres undefined),>57,7%
CC(=O)c1ccc(N2CCN(C(=O)C3CCC3)CC2)cc1,>57,-1%
Cc1cc(O)cc(O)c1C(=O)Cc1cscn1,>57,-10%
O=C(Nc1ccc2c(c1)OCO2)c1c(F)cccc1F,>57,-16%
COc1ccc(-c2nnc3sc(COc4ccc(C)cc4)nn23)cc1,>57,.
Cc1nc2sc3c(c2c2nc(-c4ccco4)nn12)CC(C)(C)OC3,>57,.
O=C(O)CCCCCN1C(=O)C(=O)/C(=C(/O)c2ccccc2)C1c1ccccc1 (centres undefined),.,-7%
CCCS(=O)(=O)NCCc1csc(-c2cccnc2)n1,>57,-2%
O=C(O)C1C2C=CC(C3CC23)C1C(=O)NCCc1ccccc1 (centres undefined),>57,-9%
Cc1ccc(N2CC(C(=O)Nc3cc(C)ccc3F)CC2=O)cc1 (centres undefined),.,?
CCOC(=O)C1CCN(C(c2cc3c(C)ccc(C)c3[nH]c2=O)c2nnnn2C2CCCCC2)CC1 (centres undefined),>57,0%
C=CCc1ccc2c(c1)OCO2,.,-2%
COc1ccc(CCNC(=O)C2CCN(S(=O)(=O)c3cnc[nH]3)CC2)cc1OC,>57,7%
O=C1/C(=C/c2ccccc2)[C@@H](NC2CCCCC2)c2ccccc21,.,4µM*
COC(=O)c1ccc(OCC(O)CN2CCC(C)CC2)cc1 (centres undefined),>57,0%
CC(=O)Oc1ccccc1C(=O)O,>57,?
CC(C)(C)OC(=O)N1CCC[C@H]1c1nnc(SCc2c(F)cccc2Cl)o1,>57,-6%
Cc1cc(NC(=O)c2ccccc2)sc1C,>57,-29%
O=C(Nc1cccc(OC(=O)N2CCCCC2)c1)N1CCCCC1,>57,8%
CCCOc1ccc(S(=O)(=O)NCc2ccc(OC)cc2)cc1,.,-19%
O=C(Nc1ccc(S(=O)(=O)N2CCC(C(=O)NC3CCCCC3)CC2)cc1)c1ccco1,>57,-7%
COc1ccc(-n2c3c(cc(C(=O)N4CCC(C)CC4)c2=O)C(=O)CC(C)(C)C3)cc1,>57,-12%
CCN(CC)CCNc1ccnc2cc(Cl)ccc12,>57,?
O=C(CN1C(=O)NC2(CCCc3ccccc32)C1=O)N1CCc2ccccc2C1 (centres undefined),>57,-8%
CCn1c(CNc2ccc(C)cc2)nnc1SCC(=O)NCc1ccccc1,>57,-1%
CC1CCN(S(=O)(=O)c2ccc(NC(=O)Cn3nnc(-c4ccccc4F)n3)cc2)CC1,>57,-24%
CCC(=O)Nc1nc(OC)cc(OC)n1,>57,0%
COC(=O)c1ccc2c(c1)N(Cc1nc(-c3cccc(Cl)c3)oc1C)C(=O)C1CCCN21 (centres undefined),>57,0%
CC1Cc2ccccc2N1C(=O)CSc1ncccc1C(=O)O (centres undefined),>57,3%
O=C(Nc1ccccc1)NC1(C(=O)NCCCN2CCOCC2)CCCCC1,>57,-1%
CC(/C=C/c1ccc(Cl)o1)=C\C(=O)O,>57,.
CC(CC(=O)O)(CC(=O)O)C(=O)O,>57,-5%[8 µM]
CCc1ccc(CCC(=O)Nc2ccc(C)cc2C)o1,>57,?
CCN1c2ccccc2-c2nc3ccccc3n2C1c1cccnc1 (centres undefined),.,?

# Source: PubChem BioAssay
